miR-21 FLuc = raises the signal of a miR-21 reporter. HeLa miR-21 FLuc reporter, luciferase, 48 h. Potency, µM (top dose mostly 38.3 µM), without a hit: top-dose reporter change, positive = more light. 340,000 tested, under 10 active. AID 2288; active = well fitted rising curve with a large enough effect; inconclusive = small, poorly fitted or top-dose-only effect; inactive = no such curve, though single readings can be large or run the other way;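 also: % of control where 0% means no effect; miR-21 action dims this reporter so a rising signal means less miR-21 action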
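Compounds were titrated across several concentrations (up to approximately 40 uM) and incubated 48 hours with HeLa miR-21-FLuc reporter cells (miR-21 target sequence downstream of FLuc, endogenous miR-21). Readout was firefly luciferase luminescence after lytic detection reagent.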
Rango dissoc inh = prevents RanGTP from dissociating the Rango-importin beta complex; O95149+P62826; Biochemical FRET Rango-importin beta, RanGTP-induced dissociation; Potency, µM (top dose mostly 46.1 µM), for inactives: at the top dose activity change, negative = inhibition; 340,000 tested, 0.071% active; AID 540253; active means falling FRET ratio curve, often poorly fitted, with flat reads before Ran was added; inconclusive means other falling curves, or compound fluorescence or quenching; inactive means flat or rising ratio curve;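 also: potency is read from the fitted curve at half-maximal effect; % of control where 0% means no effect; nearly all actives have a fitted effect of over 45% in size; -100% = wells without RanGTP and RCC1; the record marks most hits as doubtful in a second field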
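Rango FRET biosensor (snurportin-1 IBB flanked by N-terminal EYFP and C-terminal CFP10) at 0.1 uM, with 0.25 uM importin beta in PBS, 1mM DTT, 0.02% Tween-20, 0.1% BSA. 0.6 uM Ran, 2mM GTP and 0.2 uM RCC1 were then added for 45 min at room temperature. Inhibition read as loss of FRET rise.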
GLA inh pH 4.5 = inhibitors of human alpha-galactosidase A at pH 4.5. activity change, negative = inhibition, % at 105 µM. purified enzyme, 4-MU-alpha-Gal fluorescence, pH 4.5. 230,000 tested, under 10 active. P06280; inconclusive = small, poorly fitted or top-dose-only inhibition, or a rising curve; inactive = flat fitted curve, though single readings scatter; no compound was filed as active;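 also: 0% = full activity with enzyme and -100% = basal without enzyme; dose as in the result columns while the protocol names 77 µM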
Target sequence (P06280 whole entry, looked up): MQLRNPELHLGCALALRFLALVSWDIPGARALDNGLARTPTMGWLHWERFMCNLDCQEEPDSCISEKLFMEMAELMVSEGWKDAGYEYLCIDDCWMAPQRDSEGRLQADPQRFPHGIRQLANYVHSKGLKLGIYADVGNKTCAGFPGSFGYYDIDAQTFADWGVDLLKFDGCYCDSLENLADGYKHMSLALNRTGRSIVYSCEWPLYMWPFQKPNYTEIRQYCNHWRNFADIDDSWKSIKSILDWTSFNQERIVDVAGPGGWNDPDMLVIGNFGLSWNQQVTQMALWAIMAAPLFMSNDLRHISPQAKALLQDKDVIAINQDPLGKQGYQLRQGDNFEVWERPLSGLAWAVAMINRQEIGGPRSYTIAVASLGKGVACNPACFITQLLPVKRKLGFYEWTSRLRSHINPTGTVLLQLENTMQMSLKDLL
Rango-impB inh = prevents formation of the Rango-importin beta complex | Q14974 | Rango CFP/YFP FRET sensor + importin beta, 45 min | Potency, µM (series often up to 92.2 µM), inactives show at the highest dose inhibition of complex formation | 340,000 tested, 0.031% active; active = rising FRET ratio curve, often small or poorly fitted; inconclusive = mostly compound fluorescence or quenching in the first reads; inactive = flat curves in all reads;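 also: potency is read from the fitted curve at half-maximal effect; 0% = DMSO wells and 100% = buffer wells lacking importin beta; nearly all actives have a fitted effect of over 15% in size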
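FRET biosensor (snurportin 1 IBB flanked by EYFP and cerulean), 50 nM, with compound 5 min, then 0.125 microM importin beta in PBS, 1 mM DTT, 0.02% Tween-20, 0.1% BSA. CFP/YFP ratio read after 45 min at room temperature; pre-read flags interference.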
Starred values were filed as active, the others as inactive; ? = inconclusive; / = no result given; & = joins results of further samples. Some of the compounds tested. The share of hits here may be higher or lower than overall.

SMILES	miR-21 FLuc	Rango dissoc inh	GLA inh pH 4.5	Rango-impB inh
COc1cccc(Oc2cn[nH]c2-c2ccc(OCC(=O)NN)cc2O)c1	5%	-4%	/	2.9%
NNC(=O)c1ccc(Cn2cccn2)o1	-13%	-4%	9	-0.2%
CCOC(=O)c1c(C)n(C)c2ccc(O)c(S(=O)(=O)c3ccccc3)c12	9%	15%	4	0.7%
CN1C(C(=O)Nc2cccc(O)c2)=CC(c2cccs2)=NS1(=O)=O	9%&0%	-26%	/	-2.8%
O=C(COc1ccccc1)Nc1ccc(-c2nnc(-c3ccco3)o2)cc1	-30%	-4%	2	0.0%
CCCN1C2CCCC1CC(NC(=O)NC1CCCCC1)C2 (stereo not drawn)	-27%	13%	3	-2.8%
CCOC(=O)COc1cccc2c(=O)n(CC(N)=O)ccc12	2%	-15%	-2	-1.4%
Cc1ccc(NC(=O)CSc2nc3ccccc3nc2N2CCOCC2)c(C)c1	0%	7%	/	2.1%
CC1=CC2=NC(=O)CC(C)(C(=O)N(CC(=O)NC(C)(C)C)Cc3cccs3)N2C=C1 (stereo not drawn)	-3%	-7%	3	-1.0%
CN(C)C(=O)CCc1ccc2c3c([nH]c2c1)[C@]1(C)[C@@H](C(=O)N2CCCCC2)C[C@H](CC(=O)NCc2ccco2)C(=O)N1CC3	/	0%	/	3.3%
CCC(=O)N1CCc2cc(S(=O)(=O)NC(CC(C)C)C(=O)N3CCc4ccccc43)ccc21 (stereo not drawn)	-3%	0%	-6	-1.7%
Cc1ccc(C(=O)NCc2ccco2)cc1Br	-26%	-2%	-3	-3.7%
O=C(N/N=C/c1ccc2nccnc2c1)c1ccccc1O	-15%	/	-10	/
COc1cc(Cl)c(C)cc1NC(=S)NN	17%	0%	1	-1.7%
FC(F)(F)c1cccc(/C=N/NC(=S)NC2CCCCC2)c1	-2%	2%	-3	-4.2%
COc1ccc(S(=O)(=O)N2CCN(C(=O)C3CC3)CC2)cc1Br	/	6%	/	0.2%
[O-][N+](=C(c1ccccc1)c1ccccc1)c1ccccc1	/	1%	/	2.1%
CCOc1cc(C(c2c(C)[nH][nH]c2=O)c2c(C)[nH][nH]c2=O)ccc1OC(=O)c1cccc([N+](=O)[O-])c1	5%	0%	-1	6.0%
Cc1cc(C(=O)CSc2nc3ccccc3n2CCC#N)c(C)n1Cc1cccs1	-41%	-3%	-20	-0.3%
COc1ccc(N=Nc2n(C)c3ccccc3[n+]2C)cc1	?	/	-9	/
COc1ccccc1-c1nnc(SCC(=O)NNC(=O)c2ccccc2F)n1C	/	-1%	/	9.0%
Cc1ccnc(N2CCCC(C(=O)Nc3nnc(C)s3)C2)n1 (stereo not drawn)	5%	0%	2	-2.2%
COCCN(CC(=O)Nc1cccc(C)c1C)C(=O)c1cc(S(=O)(=O)N2CCCC2)ccc1C	/	-3%	/	-2.3%
Cc1cc(NC(=O)CSCC(=O)OC(C)C(=O)N(C)Cc2ccccc2)no1 (stereo not drawn)	/	-8%	/	-0.4%
COc1ccc(S(=O)(=O)N2CCCC2)cc1C(=O)N1CCOCC1	0%	11%	1	-0.8%

Retrieved one by one from the list above:
SMILES	miR-21 FLuc	Rango dissoc inh	GLA inh pH 4.5	Rango-impB inh
CN1C(C(=O)Nc2cccc(O)c2)=CC(c2cccs2)=NS1(=O)=O	9%&0%	-26%	/	-2.8%
CCC(=O)N1CCc2cc(S(=O)(=O)NC(CC(C)C)C(=O)N3CCc4ccccc43)ccc21 (stereo not drawn)	-3%	0%	-6	-1.7%
COc1cc(Cl)c(C)cc1NC(=S)NN	17%	0%	1	-1.7%

Later entries:
SMILES	miR-21 FLuc	Rango dissoc inh	GLA inh pH 4.5	Rango-impB inh
CN(C(=O)COc1cc(=O)n(C)c2ccccc12)c1ccc(Cl)cc1	-10%	41%	-11	2.0%
Cc1ccc2c(c1)N(CC(=O)NCCCN1CCCCC1C)C(=O)c1cccnc1O2 (stereo not drawn)	-4%&-3%	-2%	/	-0.3%
Cc1ccc(-c2nnc(N(C)C(=O)c3ccncc3)s2)cn1	-25%	-4%	-8	-0.4%
O=C(CCCN1C(=O)/C(=C/c2ccco2)SC1=S)Nc1cccc(C(=O)O)c1	1%	2%	-5	-2.0%
O=C(CCc1nnc(Cc2ccc3c(c2)OCO3)o1)N(CC1CCC1)CC1CCCO1 (stereo not drawn)	-2%	11%	-5	-0.6%
O=C(CN1C(=O)S/C(=C/c2cccs2)C1=O)N1CCOCC1	-5%	-16%	-4	6.5%
CCc1nnc(NS(=O)(=O)c2ccc(N/C=C\C(=O)c3ccc(C)cc3)cc2)s1	-32%	?	-4	?
Clc1ccc(-c2nc3n(n2)Cc2ccccc2-3)cc1	-56%	1%	1	-0.8%
COc1ccc(S(=O)(=O)N(CC(N)=O)C2CCCCC2)cc1Cl	-8%	-6%	1	4.4%
CCc1cc2c(=O)oc(-c3ccc(F)cc3)nc2s1	-5%	35%	/	2.2%
Cc1cc(-c2nnc(SCC(=O)Nc3ccccc3F)n2N)n[nH]1	-6%	33%	/	1.1%
Cn1c(=O)[nH]c(=O)c2c1nc(CN1CCOCC1)n2Cc1ccc(F)cc1	-4%	1%	3	3.4%
CC(=O)c1c(N2CCCCC2)nc(=S)n(Cc2ccccc2)c1C	0%	-5%	1	-1.1%
CN(C)CCNC(=O)Nc1ccc([N+](=O)[O-])cc1	1%	-5%	0	?
O=S(=O)(c1cccc(Cn2nnc(-c3ccccc3)n2)c1)N1CCOCC1	/	1%	/	-1.2%
Cc1ccc(-n2nnnc2SCC(=O)Nc2ccc(N3CCN(C)CC3)cc2)c(C)c1	-20%	1%	/	-0.6%
CN(C(=O)Cn1c(=O)oc2ccccc21)C1CCCCC1	/	-2%	/	-0.2%
O=C(Cc1ccc2c(c1)OCCO2)N/N=C/c1ccco1	/	13%	/	4.5%
COc1ccc(C(=O)N(C)CC(O)c2ccccc2)cc1OC1CCN(C(C)=O)CC1 (stereo not drawn)	-6%	-6%	/	-0.2%
OCCC1CN(Cc2cnc(N3CCCC3)s2)CCN1Cc1ccccc1 (stereo not drawn)	-2%	-31%	2	0.0%
Cc1cc(NC(=O)Cc2ccccc2C)no1	0%	22%	/	-1.2%
O=C(NCC(O)c1ccccc1)Nc1cccs1 (stereo not drawn)	-31%	-9%	/	-0.4%
COc1cc2c(cc1OC)CN(C(=O)c1cc(S(=O)(=O)N3CCOCC3)ccc1Cl)CC2	-12%	-11%	3	0.7%
CN(CC(CC(=O)Nc1nncs1)c1ccccc1)S(=O)(=O)c1ccccc1 (stereo not drawn)	2%	6%	0	-3.7%
O=C(CN(CCc1ccccc1)C(=O)c1csnn1)NCc1ccc(F)cc1	2%	-8%	/	-3.9%
Remaining list, next part
SMILES	miR-21 FLuc	Rango dissoc inh	GLA inh pH 4.5	Rango-impB inh
CC(C)(C)NC(=O)CN(C(=O)CNC(=O)c1cccs1)c1ccccc1F	-3%	-22%	/	1.0%
CCn1c(SCC(=O)N/N=C/C(C)=C/c2ccco2)nnc1-c1ccccc1	-3%	-21%	6	1.6%
CCOc1ccc(N=CC2=C(O)CC(C)(C)CC2=O)cc1	-2%	2%	0	-2.7%
O=C(OCCOc1ccccc1F)c1cc(S(=O)(=O)N2CCOCC2)ccc1F	/	-20%	/	-0.8%
CC(=O)/C(C(=N)N1CCN(C(c2ccccc2)c2ccccc2)CC1)=C(\C)O	-1%	2%	3	-1.2%
COC(=O)c1ccccc1NC(=S)N1CCN(c2ccccn2)CC1	3%	14%	-1	-4.1%
COc1ccc2[nH]cc(S(=O)(=O)c3ccc(C)cc3)c2c1	1%	1%	-13	-0.4%
FC(F)(F)c1ccc(C2Nc3cccc4cccc(c34)N2)cc1	-1%	1%	-7	-1.9%
CC(=O)/C(=C/c1ccccc1)C(=O)Nc1ccccc1C	1%	-14%	-1	2.0%
CCOC(=O)c1ccc(NCc2ccc(N(C)C)cc2)cc1	-38%	-1%	-1	2.5%
CCN(CC(=O)Nc1c(F)cccc1F)C(=O)c1nc2nccc(C)n2n1	/	-15%	/	0.4%
COc1ccc(NC(=S)N2CCN(C(=O)c3ccco3)CC2)cc1	-12%	-22%	/	2.1%
O=C(NCc1ccco1)c1ccc(Cl)c(S(=O)(=O)N2CCc3ccccc32)c1	1%	?	6	-5.0%
Cc1cc(C)nc(NC(=O)CSc2ncccn2)n1	0%	/	6	/
CC1CCN(C(=O)CSc2nc3ccccc3[nH]2)CC1	-62%	-14%	9	0.3%
CCNS(=O)(=O)c1ccc(CCC(=O)NCc2ccccn2)cc1	-2%	2%	/	5.8%
COCCNC(=O)CCCCCNS(=O)(=O)c1ccc(C)cc1	-5%	-2%	3	4.0%
N#Cc1c(-c2ccc(Cl)cc2)c(-c2ccc(Cl)cc2)nn(CCO)c1=O	/	2%	/	0.1%
C/C(=N\OCc1cccc(C(=O)O)c1)c1ccc(Cl)cc1	-69%	-5%	5	-2.0%
COc1ccc(C(=O)Nc2ccc3c(c2)OCO3)cc1OC	-59%	3%	6	0.2%
CC1CCCCC12NC(=O)N(CC(=O)N1CCN(c3ccccc3)CC1)C2=O (stereo not drawn)	/	25%	/	-0.2%
Cc1nn(Cc2ccc([N+](=O)[O-])cc2)c(=O)n1-c1ccccc1	-4%	-6%	?	0.2%
O=C(CSc1nc2ccccc2o1)Nc1cc(C(F)(F)F)ccc1N1CCOCC1	0%	25%	0	-0.1%
CC(C)=CC(=O)OCC(=O)Nc1nc(C)c(Cl)cc1Cl	-10%	1%	-7	3.2%
CC(N=C(NS(=O)(=O)c1ccc(Cl)cc1)c1ccccc1)C(=O)O (stereo not drawn)	-3%	17%	3	-0.4%

Next part, starting with the last 2 of the part before.
SMILES	miR-21 FLuc	Rango dissoc inh	GLA inh pH 4.5	Rango-impB inh
CC(C)=CC(=O)OCC(=O)Nc1nc(C)c(Cl)cc1Cl	-10%	1%	-7	3.2%
CC(N=C(NS(=O)(=O)c1ccc(Cl)cc1)c1ccccc1)C(=O)O (stereo not drawn)	-3%	17%	3	-0.4%
Cc1ccc(NC(=O)c2cc(S(=O)(=O)N3CCOCC3)c(Br)s2)cc1	-3%	-4%	0	3.9%
CCOC(=O)c1c(C)[nH]c(C(=O)OCc2ccc(F)cc2)c1C	-60%	1%	/	-0.4%
COc1ccc(S(=O)(=O)N(CCc2ccccc2)CC(=O)O)cc1	-3%	-8%	0	-0.4%
CC1CC(=O)N(CC(=O)Nc2ccc(Br)cc2)c2ccccc2S1(=O)=O (stereo not drawn)	1%	-1%	/	0.3%
CC(Nc1nc(-c2ccc(F)cc2)cs1)c1nc2cc(Cl)c(Cl)cc2n1CCOCCO (stereo not drawn)	/	-16%	/	?
c1ccc(-c2nc(CSc3nnnn3-c3ccccc3)cs2)cc1	-25%	7%	7	4.0%
O=C1CCN(S(=O)(=O)c2ccccc2)N1	-4%	-11%	5	-0.8%
O=C(CCC(=O)N/N=C/c1ccco1)N/N=C/c1ccco1	-3%	0%	-7	-0.4%
Cc1ccc(C2CCN(C(=S)NC(C)(C)C)C2)cc1 (stereo not drawn)	-35%	8%	-11	1.1%
COc1cc(NC(=O)C2CC(c3ccc(Cl)cc3)=NO2)cc(OC)c1OC (stereo not drawn)	5%	-11%	/	1.1%
COc1ccc(CN=C(C#N)C2=C(O)c3ccccc3C2=O)cc1	-4%	-14%	3	?
Cc1cc(C(C)(C)C)oc1C(=O)N(CC(=O)NC1CCCC1)Cc1ccc(F)cc1	-7%	0%	0	1.4%
Cc1ccc(-c2c(C)sc(NC(=O)C3C4CCC(O4)C3C(=O)O)c2C(=O)OC(C)C)cc1 (stereo not drawn)	0%	5%	6	4.2%
CCN(C(=O)COC(=O)c1cccc(S(=O)(=O)N2CCOCC2)c1)C1CCS(=O)(=O)C1 (stereo not drawn)	/	30%	/	-1.0%
Clc1ccc(-n2c(SC/C=C/c3ccccc3)nnc2-c2cccnc2)cc1	14%	2%	-8	?
Cc1c(C(=O)NCc2nnc(-c3ccccc3)o2)oc2c(F)cccc12	-32%	-7%	/	-1.1%
CC(=O)N1c2c(cc(Br)cc2S(=O)(=O)NCc2ccc(C)cc2)CC1C (stereo not drawn)	10%	-1%	/	-1.6%
c1cncc(-c2ccc3ncnc(NCc4ccc5c(c4)OCO5)c3c2)c1	/	2%	/	?
